Screens (PubChem BioAssay)
Yeast UUG start – modulators of start codon recognition fidelity in yeast | S. cerevisiae UUG-firefly luciferase reporter, luminescence/redox ratio | activity score, % at 18.7 µM | 0.13% of 350,000 active;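 active = replicate mean at a twofold rise or more, about +100% in these data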;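 also: firefly luciferase made from a UUG start codon reports start codon fidelity; reporter light over untreated wells divided by growth signal over untreated wells; some hits fall short of that in this replicate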
* marks the source's active call; other numbers are inactive results.

canonical_smiles | Yeast UUG start
O=C(Nc1ccc(F)cc1)N1CCCCN2[C@H](C1)[C@@H](c1ccc(-c3cccc(F)c3)cc1)[C@@H]2CO | 18
COc1ccc(C(=O)N2C[C@@H]3[C@H](c4ccccc42)[C@H](CO)N3C(=O)c2ccc(F)cc2)cc1 | 12
C[C@@H]1CN([C@@H](C)CO)C(=O)c2cccc(NS(=O)(=O)c3cn(C)cn3)c2O[C@@H]1CN(C)S(C)(=O)=O | -15
COCC(=O)Nc1ccc2c(c1)[C@H]1C[C@H](CC(=O)NCc3ccccc3OC)O[C@H](CO)[C@H]1O2 | -3
CO[C@@H]1CN(C)C(=O)c2cc(NC(=O)C3CC3)ccc2OC[C@@H](C)N(Cc2cccc(F)c2)C[C@H]1C | -10
CCNC(=O)C[C@@H]1CC[C@@H]2[C@H](COC[C@@H](O)CN2C(=O)Nc2ccc3c(c2)OCO3)O1 | 10
C[C@H](CO)N1C[C@H](C)[C@@H](CN(C)C(=O)Nc2cccc3ccccc23)Oc2c(NC(=O)c3nc4ccccc4s3)cccc2C1=O | -3
CN(C)C(=O)c1cccc(-c2ccc3c(c2)[C@@H]2[C@@H](CCN2C(=O)c2cccnc2)[C@H](CO)N3)c1 | 7
O=C(C[C@@H]1CC[C@@H]2[C@H](COC[C@H](O)CN2S(=O)(=O)c2cccc(Cl)c2)O1)NCc1ccc2c(c1)OCO2 | 4
Cc1noc(C)c1NC(=O)N(C)C[C@H]1Oc2ccc(NC(=O)CCCCCC(=O)Nc3ccccc3N)cc2C(=O)N([C@@H](C)CO)C[C@@H]1C | 1

Retrieved one by one from the entries so far, seven records:
canonical_smiles | Yeast UUG start
CO[C@@H]1CN(C)C(=O)c2cc(NC(=O)C3CC3)ccc2OC[C@@H](C)N(Cc2cccc(F)c2)C[C@H]1C | -10
Cc1noc(C)c1NC(=O)N(C)C[C@H]1Oc2ccc(NC(=O)CCCCCC(=O)Nc3ccccc3N)cc2C(=O)N([C@@H](C)CO)C[C@@H]1C | 1
O=C(Nc1ccc(F)cc1)N1CCCCN2[C@H](C1)[C@@H](c1ccc(-c3cccc(F)c3)cc1)[C@@H]2CO | 18
CN(C)C(=O)c1cccc(-c2ccc3c(c2)[C@@H]2[C@@H](CCN2C(=O)c2cccnc2)[C@H](CO)N3)c1 | 7
COCC(=O)Nc1ccc2c(c1)[C@H]1C[C@H](CC(=O)NCc3ccccc3OC)O[C@H](CO)[C@H]1O2 | -3
C[C@H](CO)N1C[C@H](C)[C@@H](CN(C)C(=O)Nc2cccc3ccccc23)Oc2c(NC(=O)c3nc4ccccc4s3)cccc2C1=O | -3
C[C@@H]1CN([C@@H](C)CO)C(=O)c2cccc(NS(=O)(=O)c3cn(C)cn3)c2O[C@@H]1CN(C)S(C)(=O)=O | -15

Next section:
canonical_smiles | Yeast UUG start
CO[C@@H]1CN(C)C(=O)c2cc(NC(=O)C3CCOCC3)ccc2OC[C@@H](C)N(S(=O)(=O)c2ccc(C)cc2)C[C@H]1C | 2
COCC#Cc1ccc([C@@H]2[C@@H](CO)N3CCCCN(C(=O)CN(C)C)C[C@@H]23)cc1 | 12
Cc1noc(C)c1NC(=O)Nc1ccc2c(c1)C(=O)N([C@H](C)CO)C[C@H](C)[C@@H](CN(C)Cc1ccc3c(c1)OCO3)O2 | -12
C[C@H](CO)N1C[C@H](C)[C@@H](CN(C)CC2CC2)Oc2ccc(NS(=O)(=O)c3ccc(Cl)cc3)cc2CC1=O | -4
O=C(C[C@@H]1CC[C@@H]2[C@H](COC[C@@H](O)CN2Cc2cccc(F)c2)O1)NCC1CCCCC1 | 2
CC(C)NC(=O)N(C)C[C@H]1Oc2ccc(NS(=O)(=O)c3ccc(Cl)cc3)cc2CC(=O)N([C@@H](C)CO)C[C@H]1C | -1
CCNC(=O)[C@@H]1[C@@H](CO)[C@@H]2Cn3c(ccc(-c4ccccc4)c3=O)[C@@H]2N1Cc1ccccc1 | 14
C[C@H]1CN([C@@H](C)CO)C(=O)c2cc(NC(=O)Nc3ccccc3)ccc2O[C@@H]1CN(C)C(=O)NC1CCCCC1 | -6
O=C(Nc1cc(F)ccc1F)N1C[C@@H]2[C@H](c3ccccc31)[C@@H](CO)N2C(=O)c1ccccc1 | 1
O=C(NC1CCCC1)[C@H]1[C@H](CO)[C@H]2Cn3c(ccc(C4=CCCCC4)c3=O)[C@@H]1N2CC1CC1 | 8

(list continues)
canonical_smiles | Yeast UUG start
CS(=O)(=O)Nc1ccc2c(c1)[C@@H]1C[C@H](CC(=O)NCc3ccc(-c4ccccc4)cc3)O[C@@H](CO)[C@@H]1O2 | -2
CCCN1[C@@H]2c3ccc(C4=CCCCC4)c(=O)n3C[C@H]1[C@H](CO)[C@H]2C(=O)NCCOC | 4
CC(C)C#Cc1ccc([C@@H]2[C@@H](CO)N3CCCCN(S(=O)(=O)Cc4ccccc4)C[C@@H]23)cc1 | -14
C[C@@H]1CN([C@H](C)CO)C(=O)c2cccc(NC(=O)C3CCCCC3)c2O[C@@H]1CN(C)S(=O)(=O)c1ccccc1 | 1
O=C(C[C@H]1CC[C@H]2[C@@H](COC[C@@H](O)CN2C(=O)c2ccncc2)O1)Nc1ccc(-c2ccccc2)cc1 | 4
Cc1ccc(S(=O)(=O)N(C)C[C@H]2Oc3ccc(NC(=O)Nc4ccccc4)cc3C(=O)N([C@@H](C)CO)C[C@@H]2C)cc1 | 12
CCCNC(=O)[C@H]1[C@H](CO)[C@H]2Cn3c(ccc(-c4cccc(OC)c4)c3=O)[C@@H]1N2C(=O)NCCC | 0
CN(C)CC#Cc1ccc([C@H]2[C@H](CO)N3CCCCN(C(=O)C4CCCC4)C[C@@H]23)cc1 | 5
COC(=O)C[C@@H]1CC[C@@H]2[C@@H](COc3ccc(NC(=O)Nc4cccc(F)c4)cc3C(=O)N2C)O1 | -3
O=C(C[C@H]1C[C@@H]2c3cc(NS(=O)(=O)c4ccccc4)ccc3O[C@@H]2[C@@H](CO)O1)N1CCCCC1 | -2

(continued)
canonical_smiles | Yeast UUG start
CC(C)NC(=O)N(C)C[C@H]1Oc2c(NS(=O)(=O)c3ccccc3)cccc2C(=O)N([C@@H](C)CO)C[C@@H]1C | -6
CCC(=O)Nc1ccc2c(c1)C(=O)N(C)C[C@H](OC)[C@H](C)CN(C(=O)Cc1ccccn1)[C@@H](C)CO2 | -5
CCCC(=O)Nc1ccc2c(c1)OC[C@H](C)N(C(=O)c1cnccn1)C[C@@H](C)[C@H](OC)CN(C)C2=O | -4
CC(=O)N1[C@H](CN(C)C(=O)CN2CCOCC2)[C@@H](c2ccccc2)[C@@H]1CO | -12
CN(C)C(=O)c1ccc(-c2ccc3c(c2)[C@H]2[C@H](CCN2C(=O)c2ccccn2)[C@H](CO)N3C)cc1 | 16
O=C(c1ccccc1)N1C[C@@H]2[C@H](c3ccccc31)[C@H](CO)N2C(=O)c1cccc(F)c1 | 21
CCCNC(=O)N1C[C@@H]2[C@H](c3ccccc31)[C@H](CO)N2Cc1ccc(OC)cc1 | 13
C[C@H](CO)N1C[C@H](C)[C@H](CN(C)Cc2ccc(C(=O)O)cc2)Oc2c(NC(=O)c3ccncc3)cccc2C1=O | 3
O=C(C[C@@H]1CC[C@@H]2[C@H](COC[C@H](O)CN2C(=O)c2ccc(F)cc2)O1)Nc1nccs1 | -1
C[C@H]1CN([C@@H](C)CO)C(=O)c2cccc(NC(=O)Nc3ccc4c(c3)OCO4)c2O[C@@H]1CN(C)C | -11

Following part:
canonical_smiles | Yeast UUG start
CC(=O)c1cccc(NC(=O)c2ccc(OCc3c(C)noc3C)cc2)c1 | -12
CCNC(=O)[C@@H]1[C@@H](CO)[C@@H]2Cn3c(ccc(-c4cccc(OC)c4)c3=O)[C@@H]2N1Cc1nccs1 | 7
C[C@@H](O)C#Cc1ccc([C@H]2[C@@H](CO)N3CCCCN(C(=O)c4ccc5c(c4)OCO5)C[C@@H]23)cc1 | -5
O=C(Nc1ccccc1)N1CCCCN2[C@H](CO)[C@H](c3ccc(-c4ccccc4)cc3)[C@@H]2C1 | 3
C[C@@H]1CN([C@@H](C)CO)C(=O)c2cc(NC(=O)Cc3ccccc3)ccc2O[C@@H]1CN(C)S(=O)(=O)c1ccc(F)cc1 | 0
O=C(c1ccccn1)N1CC[C@@H]2[C@@H](CO)Nc3ccc(-c4ccccc4)cc3[C@@H]21 | 9
Cc1ccccc1NC(=O)Nc1ccc2c(c1)C(=O)N(C)[C@@H]1CC[C@@H](CC(=O)NCC3CC3)O[C@H]1CO2 | 14
C[C@H](CO)N1C[C@H](C)[C@H](CN(C)Cc2ccncc2)Oc2ccc(NS(=O)(=O)c3cn(C)cn3)cc2CC1=O | -7
C[C@H]1CN([C@@H](C)CO)C(=O)c2cccc(NC(=O)Nc3ccc(F)cc3)c2O[C@H]1CN(C)Cc1ccc(C(F)(F)F)cc1 | -6
Cc1noc(C)c1S(=O)(=O)Nc1ccc2c(c1)C(=O)N([C@H](C)CO)C[C@H](C)[C@H](CN(C)Cc1ccc(Oc3ccccc3)cc1)O2 | 8

The results go on:
canonical_smiles | Yeast UUG start
CO[C@H]1CN(C)C(=O)c2cc(NS(=O)(=O)CC(F)(F)F)ccc2OC[C@H](C)N(C(=O)c2ccc3c(c2)OCO3)C[C@@H]1C | 15
COc1cccc(S(=O)(=O)N2CCCCN3[C@@H](CO)[C@@H](c4ccc(-c5cccnc5)cc4)[C@@H]3C2)c1 | 6
COCC(=O)Nc1ccc2c(c1)C(=O)N(C)C[C@H](OC)[C@@H](C)CN(C(=O)C1CCCC1)[C@@H](C)CO2 | 21
C/C=C/c1ccc2c(c1)[C@H]1[C@H](CCN1C(=O)Cc1cccnc1)[C@H](CO)N2C | -7
COc1ccccc1S(=O)(=O)N1C[C@H](O)COC[C@H]2O[C@@H](CC(=O)O)CC[C@@H]21 | 0
CCCNC(=O)Nc1ccc2c(c1)OC[C@@H](C)N(C(=O)c1ccccc1F)C[C@H](C)[C@@H](OC)CN(C)C2=O | 10
COc1ccc(-c2ccc([C@@H]3[C@H](CO)N4CCCCN(C(=O)c5ccc(F)cc5)C[C@@H]34)cc2)cc1 | 1
COc1cccc(NC(=O)N2CC[C@@H]3[C@@H](CO)N(C)c4ccc(-c5cccc(F)c5)cc4[C@@H]32)c1 | -10
Cc1noc(C)c1NC(=O)N(C)C[C@H]1Oc2c(NC(=O)C3CCOCC3)cccc2C(=O)N([C@@H](C)CO)C[C@H]1C | -6
COc1cccc(CN2[C@H](CO)[C@@H]3c4ccccc4N(C(=O)c4cccnc4)C[C@@H]32)c1 | 13

Among those listed so far, 2 have a COOH group.
canonical_smiles | Yeast UUG start
C[C@H](CO)N1C[C@H](C)[C@H](CN(C)Cc2ccc(C(=O)O)cc2)Oc2c(NC(=O)c3ccncc3)cccc2C1=O | 3
COc1ccccc1S(=O)(=O)N1C[C@H](O)COC[C@H]2O[C@@H](CC(=O)O)CC[C@@H]21 | 0

(more compounds)
canonical_smiles | Yeast UUG start
CN(C)C(=O)c1ccc(-c2ccc3c(c2)[C@H]2[C@H](CCN2C(=O)c2ccccn2)[C@H](CO)N3)cc1 | -7
CN1c2ccc(-c3ccc(C#N)cc3)cc2[C@H]2[C@H](CCN2S(=O)(=O)c2cccc(F)c2)[C@@H]1CO | 3
O=C(NCCc1ccccc1)[C@H]1[C@H](CO)[C@H]2Cn3c(cccc3=O)[C@@H]1N2C(=O)C1CCC1 | 22
COCCN(C[C@H]1N[C@H](CO)[C@@H]1c1ccc(-c2cccnc2)cc1)C(C)=O | 2
O=C(CC1CC1)N1[C@H](CO)[C@@H]2c3ccccc3N(S(=O)(=O)c3ccccc3F)C[C@@H]21 | -1
C[C@@H]1CN([C@H](C)CO)C(=O)c2cc(N(C)C)ccc2O[C@@H]1CN(C)Cc1ccc(-c2ccccc2)cc1 | -12
COc1ccc(S(=O)(=O)N2CCCCN3[C@H](CO)[C@@H](c4ccc(-c5cccnc5)cc4)[C@@H]3C2)cc1 | -5
CCCNC(=O)Nc1ccc2c(c1)OC[C@H](C)N(Cc1ccncc1)C[C@@H](C)[C@H](OC)CN(C)C2=O | 2
CCS(=O)(=O)Nc1ccc2c(c1)C(=O)N(C)[C@@H]1CC[C@@H](CC(=O)OC)O[C@@H]1CO2 | 4
CCCNC(=O)N1[C@@H]2CN(C(=O)Nc3ccccc3)c3ccccc3[C@@H]2[C@@H]1CO | -6

Next part.
canonical_smiles | Yeast UUG start
C[C@@H]1CN([C@H](C)CO)C(=O)c2cc(NS(=O)(=O)c3cccs3)ccc2O[C@@H]1CN(C)Cc1ccncc1 | -2
C[C@@H]1CN([C@@H](C)CO)C(=O)Cc2cc(NC(=O)CCN3CCOCC3)ccc2O[C@H]1CN(C)S(=O)(=O)c1ccc(F)cc1 | -1
O=C(Nc1cc(F)ccc1F)N1CCCCN2[C@@H](CO)[C@@H](c3ccc(-c4cncnc4)cc3)[C@@H]2C1 | -2
COc1ccc(S(=O)(=O)Nc2cccc3c2O[C@H](CN(C)C(=O)Nc2ccc(F)cc2)[C@@H](C)CN([C@@H](C)CO)C3=O)cc1 | 1
Cc1noc(C)c1NC(=O)N(C)C[C@@H]1Oc2c(NC(=O)c3ccncc3)cccc2C(=O)N([C@@H](C)CO)C[C@H]1C | 0
O=C(Nc1ccc(F)cc1)N1CCCCN2[C@H](C1)[C@@H](c1ccc(C#CC3CC3)cc1)[C@@H]2CO | 11
O=C(C[C@H]1CC[C@@H]2[C@H](COC[C@H](O)CN2C(=O)Nc2cccc(F)c2)O1)NCCCN1CCOCC1 | -6
COc1ccc(NC(=O)N2CCCCN3[C@@H](CO)[C@H](c4ccc(C#Cc5ccccc5)cc4)[C@@H]3C2)cc1 | 20
CC(=O)N1[C@H](CO)[C@H]2c3ccccc3N(S(=O)(=O)c3cccc(C)c3)C[C@H]21 | 10
C[C@@H]1CN([C@H](C)CO)C(=O)c2cc(NS(C)(=O)=O)ccc2O[C@H]1CN(C)Cc1ccc(C(=O)O)cc1 | -5
CCCNC(=O)Nc1ccc2c(c1)C(=O)N(C)[C@H]1CC[C@@H](CC(=O)OC)O[C@H]1CO2 | 2
CCC(=O)Nc1ccc2c(c1)OC[C@H](C)N(Cc1cccnc1)C[C@H](C)[C@H](OC)CN(C)C2=O | -13

These rows are one share of the data. The share of hits here may be higher or lower than overall.
